Bioassay records as filed in PubChem BioAssay.
Vaccinia Venus: vaccinia inhibition (Venus reporter) | Vaccinia virus Venus reporter expression, fluorescence | Potency, µM (top dose mostly 36.5 µM), for inactives: at the highest dose activity change, negative = inhibition, hits mostly inhibitors | 330,000 compounds, 0.46% hits | AID 720580; active means well fitted inhibition curve with a large enough effect; inconclusive means small, poorly fitted or top-dose-only effect; inactive means no such curve, though single readings can be large or run the other way; tested in A549 cells; further: nearly all actives have a fitted effect of over 30% in size; inactives centre near -10
Vaccinia mCherry: vaccinia inhibition (mCherry reporter); Vaccinia virus mCherry reporter infection, fluorescence; about a quarter of the inactives have no number; 310,000 compounds, 0.63% hits; Potency, µM (highest dose often 36.5 µM), inactives show top-dose activity change, negative = inhibition, hits mostly inhibitors; active = well fitted inhibition curve with a large enough effect; inconclusive = small, poorly fitted or top-dose-only effect; inactive = no such curve, though single readings can be large or run the other way; tested in A549 cells; further: nearly all actives have a fitted effect of over 35% in size; inactives centre near -10
An asterisk follows results filed as active; i = inactive; u = inconclusive; x = no result given; [ ] = another dose, or the depositor's remark. On the % scale 0 is the no-effect control and ±100 the full control effect; potency means the concentration at half of the fitted maximal effect.

Below each SMILES – Vaccinia mCherry, Vaccinia Venus
1) COc1ccc(N2CC(C(=O)N(C)CC(=O)Nc3ccc(Cl)c(C(F)(F)F)c3)CC2=O)c(OC)c1 (configuration not stated)
→ -14%, -25%
2) Cc1ccc(CCNC(=O)c2cn(C)c3ccc(S(=O)(=O)N(C)C4CCCCC4)cc3c2=O)cc1
→ -14%, -2%
3) Cc1nc2ccccn2c1C(=O)NNS(=O)(=O)c1ccc(Cl)cc1
→ i, -8%
4) CNc1ccccc1C(=O)OCC(C)=O
→ -19%, -6%
5) COc1ccccc1N1CCN(C(=O)c2cn(C)c3ccc(S(=O)(=O)N(C)C4CCCCC4)cc3c2=O)CC1
→ -29%, -26%
6) O=C(COC(=O)Cn1cnc2ccccc21)Nc1cccc([N+](=O)[O-])c1
→ i, -6%
7) O=S(=O)(c1ccccc1)c1cc(O)ccc1O
→ 5%, -9%
8) O=C(/C=C/[C@H]1O[C@@H](n2cnc3c(NC(=O)c4ccccc4)ncnc32)[C@H](O)[C@@H]1O)NCCCN1CCCC1=O
→ -11%, -2%
9) O=C(CCS(=O)(=O)c1ccc(Cl)cc1)Nc1ccccc1Br
→ u, u
10) Cc1cc(-c2ccc(C)c(S(=O)(=O)NC(c3cccs3)C(C)C)c2)on1 (configuration not stated)
→ -30%, -21%
11) O=C(c1cccc(-c2cncc3nccn23)c1)N1CCOCC1
→ -8%, -2%
12) O=C(NCCCc1ccccc1)C1CCN(S(=O)(=O)c2ccc(F)cc2)CC1
→ -17%, -8%
13) CC(C)(C)OC(=O)NCCCC[C@H](NC(=O)c1nc[nH]c1C(=O)NCc1ccc(CNC(=O)OC(C)(C)C)cc1)C(=O)OC(C)(C)C
→ -1%, u
14) Cn1nnnc1SC(C(=O)Nc1cccc(C(F)(F)F)c1)c1ccccc1 (configuration not stated)
→ i, -1%
15) Cc1ccc(N(Cc2cc(=O)[nH]c3ccccc23)C(=O)C(C)C)c(C)c1
→ -20%, -18%
16) COc1ccc(/C=N/N2CCOCC2)cc1COc1ccc(Cl)cc1
→ -1%, -18%
17) OC(Cc1ccccc1Br)c1ncc(-c2ccc(Cl)cc2)[nH]1 (configuration not stated)
→ -16%, -23%
18) Cc1nn(-c2ccccc2)c2c1C(c1ccc(O)c(O)c1)N1C(=N2)C(Nc2ccccc2)=Nc2ccccc21 (configuration not stated)
→ i, -3%
19) COc1ccc(NC(=O)Cn2nnc(C(=O)NCCc3ccc(OC)c(OC)c3)c2N)cc1
→ -15%, -15%
20) Fc1ccc(CCNc2ncnc3[nH]ncc23)cc1
→ u, -19%

Complete entries, looked up by structure:
Results for O=C(NCCCc1ccccc1)C1CCN(S(=O)(=O)c2ccc(F)cc2)CC1 = Vaccinia mCherry: -17%; Vaccinia Venus: -8%
Results for COc1ccc(NC(=O)Cn2nnc(C(=O)NCCc3ccc(OC)c(OC)c3)c2N)cc1 = Vaccinia mCherry: -15%; Vaccinia Venus: -15%
Results for Cc1ccc(CCNC(=O)c2cn(C)c3ccc(S(=O)(=O)N(C)C4CCCCC4)cc3c2=O)cc1 = Vaccinia mCherry: -14%; Vaccinia Venus: -2%

(list continues)
Below each SMILES – Vaccinia mCherry, Vaccinia Venus
21) O=C(O)CC(SCC(=O)Nc1ccc(Br)cc1)C(=O)O (configuration not stated)
→ i, -3%
22) N/C(=N\OC(=O)CCn1cccc(C(F)(F)F)c1=O)c1ccc(OC(F)(F)F)cc1
→ -20%, -14%
23) O=C1C2=C(c3ccccc31)[N+](=O)C1CCCCC1N2[O-] (configuration not stated)
→ x, 3%
24) O=c1[nH]c(=O)n(-c2cccc3ccccc23)c(O)c1/C=N/N1CCCCCC1
→ -22%, -14%
25) Cc1cc(Cl)c(S(=O)(=O)NC(C)C)cc1OCC(N)=O
→ i, -5%
26) Cc1cc(/C=C2/C(=O)NN(c3ccccc3)C2=O)c(C)n1-c1ccc(O)cc1
→ -19%, -27%
27) CCCN(CCO)Cc1ccc(F)c(Br)c1
→ -12%, -7%
28) CC1(C)C2CCC1(C)C(OC(=O)CCn1ccnc1)C2 (configuration not stated)
→ x, -14%
29) C=CCC[C@@H](Cc1ccc(F)cc1)C(=O)OCCNC(=O)[C@@H](CC=C)CC(=O)N[C@H](CO)Cc1ccccc1
→ u, u
30) COc1ccc(/C=N/NC(=O)c2cc(-c3ccc(C)cc3C)nc3ccccc23)cc1COC(C)=O
→ x, -31%
31) CNc1ccn(C2CCCO2)c(=O)n1 (configuration not stated)
→ i, -9%
32) Cc1sc2ncn(CC(=O)NCCCC(=O)N3CCC(C(N)=O)CC3)c(=O)c2c1C
→ 2%, -3%
33) S=c1[nH]nc2ccc3ccccc3n12
→ 27%, -2%
34) Cc1cc(S(=O)(=O)N2CCCC(C)C2)ccc1-n1cnnn1 (configuration not stated)
→ -15%, -13%
35) CC(=O)NNc1cc(C)nc(N)n1
→ i, -9%
36) CC(C)CCNC(=O)NC(=O)COC(=O)CCN=C1NS(=O)(=O)c2ccccc21
→ i, -10%
37) O=C(N/N=C\c1ccncc1)c1ccccc1O
→ -3%, -9%
38) c1ccn2cc(-c3ccc4c(c3)OCO4)cc2c1
→ -13%, 21%
39) CCc1ccc(NC(=O)CSc2nc(O)cc(=O)n2C2CCCC2)cc1
→ -18%, -5%
40) COc1cccc(OCC(=O)N2CCCc3ccccc32)c1
→ i, 2%
41) COc1cccc(N(CC(=O)NCC2CCCO2)C(=O)CNS(=O)(=O)c2ccccc2)c1 (configuration not stated)
→ -7%, -18%
42) COc1cc2c(cc1OC)C(C)N(Cc1ccc3c(c1)OCO3)CC2 (configuration not stated)
→ 12%, -3%
43) Cc1cccc(C)c1-n1nnnc1C1(C)CCC(=O)N1CCc1ccccc1F (configuration not stated)
→ -9%, 5%
44) Cc1ccc(Cl)cc1NS(=O)(=O)c1ccc2c(c1)NC(=O)CCS2
→ -11%, -7%
45) Cc1cnc(C=O)c2cccc([N+](=O)[O-])c12
→ i, -6%
46) Cc1ccccc1-c1nc2scc(CCNS(=O)(=O)c3ccccc3)n2n1
→ -6%, -3%
47) CCN(CC(=O)Nc1c(F)cccc1F)C(=O)c1cccc(S(=O)(=O)N(C)c2ccccc2)c1
→ -29%, -5%
48) CC(C)C(C(=O)NCC1CCCO1)N(C(=O)CNS(=O)(=O)c1ccccc1)C1CCCCC1 (configuration not stated)
→ 5%, 5%
49) Cc1ccc2cc(CNCc3cccc4ccccc34)c(N3CCC(O)CC3)nc2c1
→ -12%, -2%
50) Cn1nc(C(=O)NNc2c(F)c(F)cc(F)c2F)c2ccccc2c1=O
→ i, -8%
51) Cc1cc(C)c[n+](-c2nc3ccccc3nc2C(=C=[N-])C#N)c1
→ x, 25%
52) CCc1ccc(N(CC)C(=O)c2cn(C)c(=O)c3ccccc23)cc1
→ -5%, -2%
53) COc1ccccc1NC(=O)CN(c1ccccc1C)S(C)(=O)=O
→ -13%, -6%
54) O=C(CSc1nc2ccccc2c(=O)n1CCC(=O)N1CCN(c2ccccc2)CC1)NCC1CCCO1 (configuration not stated)
→ -13%, -11%
55) Cc1cc(F)ccc1C(O)c1ncc(-c2cccc3ccccc23)[nH]1 (configuration not stated)
→ 9%, -1%
56) COCCN=c1scc(-c2cc(OC)ccc2OC)n1/N=C/c1c[nH]c2ccccc12
→ u, u
57) CCN(CC(=O)Nc1ccc2c(c1)OCCO2)C(=O)CCc1ccc(OC)cc1
→ -13%, -14%
58) Cc1ccn2c(c1)nc(=O)c1cc(S(=O)(=O)N3CCC(C)CC3)ccc12
→ 10%, -1%
59) O=C1NC(=O)/C(=C/c2ccc(N3CCOCC3)o2)N1
→ i, -12%
60) Cc1ccc2c(c1)C(=O)c1c(C(=O)O)cccc1-2
→ -4%, -6%

The list goes on, starting with the last 7 of the part before.
Below each SMILES – Vaccinia mCherry, Vaccinia Venus
54) O=C(CSc1nc2ccccc2c(=O)n1CCC(=O)N1CCN(c2ccccc2)CC1)NCC1CCCO1 (configuration not stated)
→ -13%, -11%
55) Cc1cc(F)ccc1C(O)c1ncc(-c2cccc3ccccc23)[nH]1 (configuration not stated)
→ 9%, -1%
56) COCCN=c1scc(-c2cc(OC)ccc2OC)n1/N=C/c1c[nH]c2ccccc12
→ u, u
57) CCN(CC(=O)Nc1ccc2c(c1)OCCO2)C(=O)CCc1ccc(OC)cc1
→ -13%, -14%
58) Cc1ccn2c(c1)nc(=O)c1cc(S(=O)(=O)N3CCC(C)CC3)ccc12
→ 10%, -1%
59) O=C1NC(=O)/C(=C/c2ccc(N3CCOCC3)o2)N1
→ i, -12%
60) Cc1ccc2c(c1)C(=O)c1c(C(=O)O)cccc1-2
→ -4%, -6%
61) Cn1c(SCC(=O)NC2CCCCC2)nnc1C(F)(F)F
→ -10%, 7%
62) CCCCN(C(=O)c1ccccc1OCc1ccc(F)cc1)c1c(N)n(CC(C)C)c(=O)[nH]c1=O
→ -17%, -16%
63) COc1ccc(OCCOC(=O)Nc2ccccc2)cc1
→ -11%, u
64) Cn1c(=N)n(CC(=O)c2cccs2)c2ccccc21
→ -2%, -16%
65) COc1cccc(-c2noc(CCC(=O)N3CCN(c4cc(C)ccc4C)CC3)n2)c1
→ -17%, -9%
66) O=C(O)/C=C/C(=O)Nc1ccc(S(=O)(=O)Nc2nccs2)cc1
→ 0%, -5%
67) Cc1ccc2c(c1)c(=O)c1ccccc1n2CCCC(=O)Nc1c(F)cccc1F
→ -2%, 2%
68) CCCN(CCC)CCCNC(=O)c1cc2c(=O)[nH]c3ccccc3c2s1
→ i, -9%
69) CCc1ccccc1N(C)C(=O)c1ccc2c(=O)n3c(nc2c1)CCCCC3
→ -21%, -23%
70) CC1(C)C(c2ccco2)=[N+]([O-])C2(CCCCC2=O)N1O (configuration not stated)
→ -13%, -10%
71) O=C(c1ccc(Oc2ccccc2)cc1)C1CCCN(C(=O)c2cnccn2)C1 (configuration not stated)
→ -10%, -12%
72) CC(Sc1nc(C2CC2)n(-c2ccccc2)n1)C(=O)c1c(N)n(C)c(=O)n(C)c1=O (configuration not stated)
→ -13%, -14%
73) COc1ccc(NC2=NC3(CCCCC3)N=C(N)N2)cc1
→ -10%[1.46 µM], -2%
74) CCOC(=O)c1sc(C)c2c1NC(C)(c1cccc3ccccc13)NC2=O (configuration not stated)
→ x, u
75) Fc1ccccc1CN1CCCN(C(=S)Nc2cccc(Cl)c2)C1
→ u, -8%
76) Cc1ccc(CCNC(=O)CC2Oc3ccc(C)cc3NC2=O)cc1 (configuration not stated)
→ -11%, 0%
77) COC(=O)C1(C(=O)OC)Sc2ccccc2C1=O
→ -12%, 6%
78) COc1ccc(-n2c(=S)[nH]c3cc(C(=O)NCCCN4CCCC4=O)ccc3c2=O)cc1
→ -15%, -5%
79) COc1ccc(C(=O)N2CCN(c3ccc(C)cc3)CC2)cc1OC
→ -14%, -12%
80) CC(C)CC(NS(=O)(=O)c1ccc2c(c1)oc(=O)n2C)C(=O)N1CC=C(c2ccccc2)CC1 (configuration not stated)
→ u, -22%
81) Cc1c(-c2ccc(OCCN3CCCCC3)cc2)c(=O)oc2ccc3ccccc3c12
→ -4%, -10%
82) CSCCC(NC(=O)c1ccccc1Cl)C(=O)NNC(=O)c1ccncc1 (configuration not stated)
→ i, -8%
83) COc1ccc(Br)cc1CN(C)CC(=O)Nc1c(Cl)ccc(C)c1Cl
→ -4%, -10%
84) O=C(NCc1ccccn1)c1cc(-c2ccccc2)nc2ccccc12
→ -15%, 2%
85) O=C(Nc1ccc(-c2nc3ccccc3s2)cc1)c1cc(-n2cnnc2)ccc1Cl
→ u, 7.9µM*
86) Cc1nn(-c2ccccc2)c2c1/C(=N/O)CC(C)(C)C2
→ -13%, -18%
87) Cc1cccc(NC(=O)c2sc3nc(N)c(C#N)cc3c2N)c1
→ i, -18%
88) CC1=C(c2ccc(C(C)C)cc2)S(=O)(=O)NC1=NCc1ccccc1C
→ -9%, -20%
89) CC1Cc2cc(S(=O)(=O)CCC(=O)NCc3ccccc3Cl)ccc2N1C(=O)C1CC1 (configuration not stated)
→ -21%, -16%
90) Nc1ncnc2nc(SCc3ccc(Cl)cc3Cl)[nH]c12
→ u, u
91) Cc1ccc2oc(-c3ccc(NC(=O)CCC(=O)O)cc3)nc2c1
→ 3%, -1%
92) COCCCn1c(C(=O)NCCN2CCOCC2)cc2c(=O)n3cccc(C)c3nc21
→ -22%, -16%
93) CC(C)(C)OC(=O)NCCc1onc(-c2ccccc2F)c1C(=O)O
→ 3%, -5%
94) CCOC(=O)c1ccc(N=CC2=C(O)CC(C)(C)CC2=O)cc1
→ -26%, -18%
95) COc1ccc(C(=O)CCC(=O)NCCc2c[nH]c3ccccc23)cc1OC
→ u, -7%
96) N#C/C(=C\C=C\c1ccccc1)C(=O)N1CCCC1
→ 2%, -2%
97) CN(Cc1cccc(Cl)c1)C(=O)C1CSC2(C)CCC(=O)N12 (configuration not stated)
→ -9%, -2%
98) Cc1ccc(S(=O)(=O)N(C)C[C@@H]2Oc3ccc(NC(=O)Nc4cccc5ccccc45)cc3C(=O)N([C@H](C)CO)C[C@H]2C)cc1
→ -18%, u
99) COc1cccc(-n2c(SCC(=O)N3CCOCC3)nc3c([nH]c4ccccc43)c2=O)c1
→ -13%, 0%
100) O=C(NCc1cccs1)C1CCCN1C(=O)NC1CCCCC1 (configuration not stated)
→ -10%, -13%
101) COc1ccc(N2CCN(C(=O)COC(=O)CCc3ccccc3OC)CC2)cc1
→ -21%, 3%
102) O=c1[nH]cc(C(F)(F)F)cc1NS(=O)(=O)c1ccccc1[N+](=O)[O-]
→ i, -1%

An excerpt from the list above, for reference:
Below each SMILES – Vaccinia mCherry, Vaccinia Venus
94) CCOC(=O)c1ccc(N=CC2=C(O)CC(C)(C)CC2=O)cc1
→ -26%, -18%
95) COc1ccc(C(=O)CCC(=O)NCCc2c[nH]c3ccccc23)cc1OC
→ u, -7%
